Ecoli growth: inhibitors of Escherichia coli growth; OD600, 23 h; hits give low values; OD600 absorbance (no concentration beside the values); actives 0.21% (n = 330,000); AID 1053175;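 active = OD600 absorbance below the run mean of sample wells minus 3.6 SD, in any replicate, cut at about 0.56 in these data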;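 note: stock transfer was 300 nL into about 60 µL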
rRNA inh HTS: selective bacterial rRNA inhibition in E. coli; E. coli WT GFP vs humanized-ribosome RFP mutants, fluorescence, 24 h; hits give low values; DMSO median 0, no signal -100; actives 1.6% (n = 350,000); AID 720706; GFP signal change (wild-type ribosome), % (concentration not given with the values);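 active = significant combined selectivity score with lowered wild-type GFP, culture density cut under 30%, mutant RFP and density less affected; inactive = any of these conditions unmet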; note: one replicate is shown; some compounds called inactive have numbers as strong as hits
AF4-AF9 inh: MLL-AF4/AF9 protein interaction inhibition. actives 0.47% (n = 350,000). AlphaScreen, biotin-AF4 peptide binding to FLAG-AF9. AID 651704. P42568. inhibition, % at 10 µM;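 active = every replicate reaching a set inhibition limit, whatever the replicate mean, cut at about 25% in these data; inconclusive = mean inhibition reaches that limit but some replicates miss it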;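 note: 0% = plate neutral control median and 100% = total signal loss; the record names both 10 and 1 µM as test concentration; the first replicate is given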
HNF4A DNA FP: change in binding of human HNF4 alpha to DNA; activity change, % at 10 µM; actives 0.3% (n = 360,000); P41235; HNF4a-FITC DNA binding, fluorescence polarization, 1 h; AID 1224865; in the data active = activity change above about 30%, passing the limit was not always enough;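 note: controls were the assay level and a saturating level of protein; the project sought stronger binding though the title names inhibitors; some compounds called inactive have numbers as strong as hits; positive values seem to mean higher polarization but the record does not say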
Target sequence (P41235 whole entry, looked up): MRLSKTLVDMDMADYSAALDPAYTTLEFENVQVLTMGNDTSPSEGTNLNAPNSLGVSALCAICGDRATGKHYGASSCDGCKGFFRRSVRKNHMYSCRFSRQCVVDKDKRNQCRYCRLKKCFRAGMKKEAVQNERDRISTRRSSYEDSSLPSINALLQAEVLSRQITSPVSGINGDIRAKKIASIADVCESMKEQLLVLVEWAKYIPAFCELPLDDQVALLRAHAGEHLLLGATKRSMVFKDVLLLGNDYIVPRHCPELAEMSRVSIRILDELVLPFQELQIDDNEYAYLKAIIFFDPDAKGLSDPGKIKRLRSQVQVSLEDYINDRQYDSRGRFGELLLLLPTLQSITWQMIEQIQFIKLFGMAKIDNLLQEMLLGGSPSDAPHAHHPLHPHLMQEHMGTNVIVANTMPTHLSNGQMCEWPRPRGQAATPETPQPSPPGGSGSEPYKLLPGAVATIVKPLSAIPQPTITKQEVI
FGF22 binding: binders of recombinant human FGF22 by thermal shift. AID 651658. SYPRO orange fluorescence; percent of sucrose octasulfate shift, DMSO zero. actives 1.5% (n = 340,000). calls only at 9.99 µM;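 active = melting point raised past a set limit in the mean and every replicate; inconclusive = no clear call; three in four hits are not shown here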
Target sequence (Q9HCT0 whole entry, looked up): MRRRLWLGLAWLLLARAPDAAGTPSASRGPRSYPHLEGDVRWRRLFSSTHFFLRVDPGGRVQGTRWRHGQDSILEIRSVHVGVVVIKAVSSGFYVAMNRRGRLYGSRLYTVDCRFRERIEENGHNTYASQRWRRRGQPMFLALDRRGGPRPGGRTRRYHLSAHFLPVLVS
Vif A3G: HIV-1 Vif–A3G interaction blockers – biochemical, TR-FRET, GST-Vif 1-94, biotin-A3G peptide, dose response retest, primary screen (AID 1117319). TR-FRET GST-Vif / biotin-A3G peptide binding; higher % means a stronger effect; test concentration not given here; strong numbers were not always called active. inhibition, %; hits with a dose series show IC50 in µM. actives 0.57% (n = 260,000);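 active = above the screen mean plus three standard deviations and confirmed in dose response; inconclusive = results disagree or hit not tested in dose response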;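 note: Vif residues 1-94 fused to GST binding biotinylated APOBEC3G peptide 110-148; 0% = full assay without inhibitor and 100% = GST in place of GST-Vif; retest series ran down from 100 µM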
ALR H2O2 inh: inhibitors of human sulfhydryl oxidase ALR. P55789. purified ALR, DTT oxidation, H2O2 HRP-luminol luminescence. inhibition, % (concentration not given with the values). actives 3.8% (n = 290,000);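 active = mean and each replicate at 75% or more; inconclusive = only one of the two met; inactive = neither met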;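 note: stock transfer was 7.5 nL into about 7.5 µL; 0% = neutral wells and 100% = wells with inactivated enzyme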
Target sequence (P55789 whole entry, looked up): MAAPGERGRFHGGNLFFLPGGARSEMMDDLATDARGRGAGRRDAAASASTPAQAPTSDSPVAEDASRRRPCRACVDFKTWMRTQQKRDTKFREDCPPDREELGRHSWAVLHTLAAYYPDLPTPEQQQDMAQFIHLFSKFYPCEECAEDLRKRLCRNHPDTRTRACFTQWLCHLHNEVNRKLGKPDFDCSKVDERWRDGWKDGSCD
rRNA inh HTS OD600: also measured in rRNA inh HTS; calls as there; OD600 change, %; measured here: OD600 growth;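 optical density of the mix in the first replicate; 0 = DMSO median and -100 = no signal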
rRNA inh HTS RFP: further read-out of rRNA inh HTS, marked with its call; RFP signal change, %; measured here: RFP humanized mutant strains;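 first replicate; 0 = DMSO median and -100 = no signal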
Starred values were filed as active, the others as inactive; i = inactive; u = inconclusive; x = not tested or not shown.

SMILES	Ecoli growth	rRNA inh HTS	rRNA inh HTS OD600	rRNA inh HTS RFP	AF4-AF9 inh	HNF4A DNA FP	FGF22 binding	Vif A3G	ALR H2O2 inh
COc1ccc(C(=O)NC(=S)Nc2ccccc2N2CCOCC2)cc1[N+](=O)[O-]	0.73	x	x	x	x	-1.1	x	11%	1
Cc1c(F)cccc1NS(=O)(=O)c1ccccc1C#N	0.69	4	-8	-5.0	7.1	-0.1	i	4%	0
CCOC(=O)CSc1nc(C)cc(=O)[nH]1	0.66	x	x	x	x	2.4	x	-5%	-40
Cn1cnnc1SCC(=O)c1ccc2c(c1)NC(=O)CO2	0.7	4	7	-2.8	0.3	-0.5	i	-3%	28
Cc1ccc(C)c(N(CC(=O)NCc2ccco2)C(=O)CNS(=O)(=O)c2ccc(F)cc2)c1	0.62	-1	-8	5.4	7.7	3.4	i	4%	4
Cc1ccc(CSc2nnc3c(n2)OC2(Nc4ccccc4-3)C(=O)Nc3ccc(F)cc32)cc1 (configuration not stated)	0.67	-15	0	-1.5	-36	2.3	i	9%	-1
CCN(c1ccccc1)S(=O)(=O)c1ccc2ccccc2c1	0.69	-17	-31	-2.5	-3.2	1.1	i	-1%	-12
CCc1nn(CC(=O)NCCc2ccc(OC)cc2OC)c(=O)c2cc3occc3n12	0.71	3	24	-1.1	2.1	1.5	i	x	1
CCN(CC(=O)Nc1ccccc1OC)C(=O)C1CC2C=CC1C2 (configuration not stated)	0.64	x	x	x	x	-5.8	x	u	-5
CCCNC(=O)C1(C)CCN(C(=O)C2(c3ccc(Cl)cc3)CCCC2)C1 (configuration not stated)	x	-5	-2	3.9	-1.6	0.8	i	x	x
CN(C)c1ncnc2c1C(c1ccccc1)C(C)(C)O2 (configuration not stated)	x	-1	0	-1.8	0.7	3.8	i	-4%	x
COc1ccc(S(=O)(=O)N2c3ccccc3OCC2C(C)(C)C)cc1 (configuration not stated)	0.68	-26	-28	-4.4	-2.1	-0.2	i	3%	-5
COC(=O)c1sc(NC(=O)c2cc3c(s2)CCCC3)nc1C	0.69	x	x	x	x	-3.3	x	9%	3
CC(C)NC(=O)N(C)C[C@@H]1OCc2ccccc2-c2ccccc2C(=O)N([C@H](C)CO)C[C@@H]1C	x	1	2	-1.8	-9.9	x	i	x	x
CC(C/C=N/NC(=O)COc1cc(Cl)ccc1Cl)c1ccccc1 (configuration not stated)	x	x	x	x	x	8.8	x	-4%	-14

Taken from above.
`Cc1ccc(C)c(N(CC(=O)NCc2ccco2)C(=O)CNS(=O)(=O)c2ccc(F)cc2)c1` in Ecoli growth = 0.62
`CCc1nn(CC(=O)NCCc2ccc(OC)cc2OC)c(=O)c2cc3occc3n12` in rRNA inh HTS OD600 = 24
`Cc1ccc(CSc2nnc3c(n2)OC2(Nc4ccccc4-3)C(=O)Nc3ccc(F)cc32)cc1` (configuration not stated) in rRNA inh HTS RFP = -1.5
`CCN(c1ccccc1)S(=O)(=O)c1ccc2ccccc2c1` in Vif A3G = -1%

An excerpt of these results, with bars between the fields.
SMILES | Ecoli growth | rRNA inh HTS | rRNA inh HTS OD600 | rRNA inh HTS RFP | AF4-AF9 inh | HNF4A DNA FP | FGF22 binding | Vif A3G | ALR H2O2 inh
Cc1ccc(C)c(N(CC(=O)NCc2ccco2)C(=O)CNS(=O)(=O)c2ccc(F)cc2)c1 | 0.62 | -1 | -8 | 5.4 | 7.7 | 3.4 | i | 4% | 4
CCc1nn(CC(=O)NCCc2ccc(OC)cc2OC)c(=O)c2cc3occc3n12 | 0.71 | 3 | 24 | -1.1 | 2.1 | 1.5 | i | x | 1

The list continues.
SMILES	Ecoli growth	rRNA inh HTS	rRNA inh HTS OD600	rRNA inh HTS RFP	AF4-AF9 inh	HNF4A DNA FP	FGF22 binding	Vif A3G	ALR H2O2 inh
COc1ccc(NC(=O)Nc2ccc3c(c2)C(=O)N([C@@H](C)CO)C[C@@H](C)[C@H](CN(C)S(=O)(=O)c2ccccc2)OCCCC[C@@H](C)O3)cc1	x	-3	0	-0.6	-1.0	x	i	x	x
CC(Cc1n[nH]c(=S)n1N)c1ccccc1 (configuration not stated)	0.68	9	13	-0.5	-2.1	-1.2	i	-1%	58
COc1cccc(CC(=O)N2CCC(CCC(=O)Nc3cccc(OC)c3)CC2)c1	0.67	-6	-13	-0.3	-5.7	0.9	i	2%	-23
O=C1CCNc2c(Cl)cccc21	0.68	x	x	x	-2.0	1.8	i	-7%	-10
Cc1ccc(S(=O)(=O)CCOC(=O)CNC(=O)OCc2ccccc2)cc1	x	3	2	-4.2	-2.7	2.9	i	31%	x
CCOC(=O)C(C(=O)OCC)N(C#N)c1nc(C)cc(C)n1	0.74	x	x	x	x	-3.5	x	-5%	1
C[C@@H]1CN([C@H](C)CO)C(=O)Cc2cc(NC(=O)Cc3ccccc3)ccc2O[C@H]1CN(C)C(=O)Nc1ccc(F)cc1	x	3	8	0.7	-1.0	x	i	x	x
COc1ccc(CNC(=O)/C(C#N)=C/c2cccc(OC)c2OC)cc1	0.66	-12	-7	1.1	1.3	-1.0	i	-9%	13
O=C(CSc1nnc(-c2ccccc2)o1)NC(=O)Cc1ccccc1	0.71	1	-6	-2.3	-1.5	0.2	i	x	3
Cc1ccc(CNc2nc(NCC3CC3)nc3ccsc23)c(C)c1	x	-62	-83	-20	8.3	2.0	i	x	x
O=C(NCc1cccs1)C1CCCN1C(=O)Nc1ccccc1Cl (configuration not stated)	0.65	9	6	-0.8	0.5	0.5	i	x	-16
O=C(Nc1ccc(Cl)c(Cl)c1)N[C@@H]1CC[C@@H](CCn2cc(C3CCCCC3)nn2)O[C@@H]1CO	x	-8	-20	15	-12	2.4	i	x	x
Cc1cc(C)c(C(N)=O)c(Nc2cccc(Cl)c2)n1	0.66	6	4	4.2	4.2	-1.2	i	15%	x
Cc1ccc(CNC(=O)[C@@H]2CCC(=O)N2Cc2ccco2)cc1	0.7	x	x	x	x	0.5	x	0%	-2
CC(C)(C)NCc1ccccc1OCc1cccs1	0.67	x	x	x	x	-0.7	x	0%	x
COc1ccc(OC)c(NC(=O)CSc2nc3ccccc3c(=O)n2CCNC(C)=O)c1	0.74	x	x	x	x	-4.2	x	23%	-18
CC(=O)c1ccc(NC(=O)C2CCCN(S(=O)(=O)c3ccc(-n4cnnn4)cc3)C2)cc1 (configuration not stated)	0.7	3	12	-1.1	0.4	4.1	i	-8%	x
COc1ccc(NCc2cc(=O)oc3cc(NC(C)=O)ccc23)cc1	0.73	3	4	3.7	-1.8	3.2	i	3%	x
CN1C(=O)c2cc(NC(=O)Cc3cccs3)ccc2OC[C@H]2O[C@H](CC(=O)N[C@@H]3CCN(Cc4ccccc4)C3)CC[C@@H]21	x	1	4	-1.2	2.2	x	i	x	x
CC(C)(C)CC(C)(C)NC(=S)NC1CCN(Cc2ccccc2)CC1	0.66	-48	-52	-13	12	1.1	i	x	-6
Cc1nn(-c2ccccc2)c(Cl)c1C(=O)NNC(=O)c1ccncc1	x	2	1	-2.9	-2.5	1.7	i	0%	x
CC(C)(C)c1ccc(C(=O)CSc2nc3ccccc3c(=O)[nH]2)cc1	0.74	x	x	x	x	-2.4	x	2%	0
CCCCCN(C(=O)CCC(=O)OCC(=O)c1ccc(CCC)cc1)c1c(N)n(CCCC)c(=O)[nH]c1=O	0.64	-3	4	-2.2	-12	0.2	i	-3%	-10
CCCNC(=O)Nc1ccc2c(c1)OC[C@H](C)N(C(=O)CC)C[C@H](C)[C@@H](OC)CN(C)C2=O	x	-1	4	-0.6	-19	x	i	x	x
C[C@@H]1NC(=O)c2cc([N+](=O)[O-])cc(I)c2OCC[C@@H](C(N)=O)NC(=O)[C@H](CCCCN)NC1=O	x	x	x	x	x	-0.2	x	-2%	-3
Cc1noc(C)c1S(=O)(=O)N1CCCC(C(=O)NCC2CCCO2)C1 (configuration not stated)	0.7	x	x	x	x	0.7	x	16%	-2
N#C[C@@H]1[C@H](c2ccc(-c3cccc(F)c3)cc2)[C@H](CO)N1C(=O)CN1CCOCC1	x	-3	1	4.8	0.0	x	i	x	x
CCC(OC(=O)c1nsc(Cl)c1Cl)C(=O)NC(C)(C)C (configuration not stated)	0.7	4	11	1.0	-8.4	-2.5	i	-4%	x
CC(C)CCNC(=O)C(c1ccc(O)cc1)N(Cc1ccco1)C(=O)CCC(=O)Nc1nccs1 (configuration not stated)	0.65	0	-2	-0.3	4.3	1.6	i	x	x
C[C@@H]1CN([C@H](C)CO)C(=O)Cc2cc(NS(=O)(=O)c3ccc(Cl)cc3)ccc2O[C@@H]1CN(C)C	x	5	-5	0.3	-2.6	x	i	x	x
OCCNc1nc(Nc2ccccc2O)nc(N2CCCC2)n1	0.67	-10	-6	0.0	1.3	-1.5	i	x	u
O=C(COC(=O)C1COc2ccccc2O1)Nc1ccc2c(c1)CCC2 (configuration not stated)	0.74	x	x	x	x	-0.4	x	3%	2
CCOc1ccc(CCNC(=O)c2nnn(CC(=O)Nc3c(C)cc(C)cc3C)c2N)cc1OCC	0.62	6	17	0.6	1.8	4.2	i	1%	-2
C[C@@H]1CCCCO[C@H](CN(C)Cc2ccccc2)[C@@H](C)CN([C@@H](C)CO)C(=O)c2cc(NC(=O)Nc3ccc4c(c3)OCO4)ccc2O1	x	1	-15	-0.7	37*	x	i	x	x
O=C(NCC(=O)N1CCCC(C(F)(F)F)C1)c1ccc(Br)o1 (configuration not stated)	0.71	11	13	-1.7	6.5	0.2	i	0%	-5
Cc1cccc(C(=O)NCc2nnc(SCc3ccc(F)cc3)n2C)c1	0.64	1	-5	0.9	-2.7	2.5	i	u	-16
CCNC(=O)C[C@H]1CC[C@@H]2[C@H](COc3ccc(NC(=O)Nc4ccccc4OC)cc3C(=O)N2C)O1	x	0	1	0.4	1.2	x	i	x	x
CCOCCCNC(=O)Cc1ccc(-n2c(CC)nc3cccnc32)cc1	0.67	1	6	-0.5	2.0	1.0	i	-4%	4
COCCNC(=S)N/N=C(\C)c1cc2ccccc2o1	x	5	-7	3.0	-0.9	1.4	i	-1%	38
CC1(C)NC(=O)N(CCCCSc2ccc(Cl)cc2)C1=O	0.62	x	x	x	x	-2.8	x	-2%	2
Cc1ccc(N2C(=O)CC(Nc3ccccc3)C2=O)cc1 (configuration not stated)	0.66	14	5	0.7	2.2	-1.7	i	3%	-5
COc1ccc(CN2C(=O)c3ccccc3C2C(=O)NCCc2ccccc2)c(OC)c1 (configuration not stated)	0.68	0	6	1.5	-7.4	5.9	i	-13%	-5
Cc1cccc(/C=N/NC(=O)c2ccccc2OCc2cccc(Br)c2)n1	x	-61	-82	-20	1.4	1.0	i	x	x
CSc1ccccc1NC(=O)COC(=O)c1c[nH]c(=O)[nH]c1=O	0.69	4	11	-4.9	-5.2	3.4	i	x	3
Cc1ccnc(NC(=O)c2cccc(S(=O)(=O)N3CCCC3)c2)c1	0.7	1	4	0.5	-0.5	0.6	i	8%	-6
O=[N+]([O-])c1ccc(Cl)c(S(=O)(=O)NCC2CCCO2)c1 (configuration not stated)	0.7	x	x	x	x	-0.4	x	x	-7
COc1ccc(CNC(=O)c2ccc3nc(C)c(N(C)Cc4ccc(NC(C)=O)cc4)n3c2)cc1	x	-7	-15	5.2	-1.0	-1.7	i	x	x
Cc1cc(NC(=O)CCC(=O)N(c2ccccc2)C(C(=O)NC2CCCC2)c2ccccc2C)no1 (configuration not stated)	0.71	-1	0	0.9	-7.2	-0.9	i	-6%	x
Cc1cc(Nc2ccc(N3CCOCC3)cc2)c2cccc(C)c2n1	0.63	12	5	-1.1	7.8	2.1	i	6%	67
CN(C)c1ccc(/C=C2\N=C(C(C)(C)C)OC2=O)cc1	0.73	13	19	5.6	9.4	11	i	x	14
Nc1nc2c(C(=O)N3CCOCC3)nnn2c2ccccc12	0.67	5	12	-2.1	-2.2	-1.6	i	x	-9
S=c1[nH]nc(-c2ccco2)n1-c1ccc(Br)cc1	0.69	-3	1	1.6	-3.0	2.8	i	x	74

A portion of the library; the hit share may differ from the screen's.
